Screening results (PubChem)
GIV Gai3 FP – inhibitors of GIV peptide binding to Galpha-i3, primary screen, biochemical, fluorescence polarization, FITC-GIV GBA peptide, rat Galphai3; percent of control (FP), % (no concentration beside the values); AID 1224905, 2016; 210,000 tested, 0.42% active; 90 min; active compounds read low; scaled: aluminum fluoride 0%, vehicle 100%; Guanine nucleotide-binding protein G(i) subunit alpha-3 (Rattus norvegicus), P08753;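 active = replicate mean at 85% of control or lower, very high polarization wells dropped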;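 also: wells of about 15 µL received 100 nL stock; the first replicate is given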
Target sequence (P08753 whole entry, looked up): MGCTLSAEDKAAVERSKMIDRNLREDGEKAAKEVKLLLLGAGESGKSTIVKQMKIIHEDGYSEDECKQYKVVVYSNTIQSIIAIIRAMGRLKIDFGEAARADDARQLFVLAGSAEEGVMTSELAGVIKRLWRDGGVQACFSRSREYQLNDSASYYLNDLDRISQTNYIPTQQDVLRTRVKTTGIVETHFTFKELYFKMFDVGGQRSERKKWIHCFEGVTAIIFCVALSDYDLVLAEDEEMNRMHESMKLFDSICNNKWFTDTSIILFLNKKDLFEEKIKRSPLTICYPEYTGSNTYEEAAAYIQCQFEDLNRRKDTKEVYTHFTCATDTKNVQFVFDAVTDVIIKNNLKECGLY
Sa growth inh – S. aureus growth inhibition at 42 and 30 °C, primary screen, LtaS inhibitor project, RN4220, two temperatures; AID 720641, 2013; OD600, 20 h, 42 °C; active compounds read low; 170,000 tested, 0.53% active; relative growth, % (test concentration not listed);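 active = growth at 42 °C up to 50% and 20 or more points under that at 30 °C, or under 10% at both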;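 also: 300 nL library stock went into each well; scaled to the means of positive and negative controls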
HCMV UL50-53 inh – inhibitors of HCMV UL50-UL53 interaction, biochemical, HTRF; normalized percent inhibition; inhibition, % (concentration not given with the values); 190,000 tested, 0.15% active; AID 1918969, 2023;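 active = both replicates at 50% or more, plus weaker picks with an unusually low signal ratio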;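 also: stock transfer was 100 nL into about 20 µL; 0% = negative control wells and 100% = wells with untagged competitor protein; inactives centre near -12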
Sa growth inh second temp – second read-out of Sa growth inh, no call of its own (marks repeat the call); relative growth, %; measured here: growth at 30 °C;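 optical density after 20 h as mean of two plates; 100% = untreated growth and lower means inhibition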
The depositor's hits bear a star; x = not tested or not shown; & = joins results of further samples.

A first look (20 entries):
SMILES	GIV Gai3 FP	Sa growth inh	Sa growth inh second temp	HCMV UL50-53 inh
COc1cccc(NC(=O)Cn2nc(N3CCN(c4ccccc4OC)CC3)ccc2=O)c1	110	x	x	-41
COc1ccc(C2=N/C(=C/c3c(C)nn(-c4ccccc4)c3N3CCCCC3)C(=O)O2)cc1OC	x	105	81	-12
CCOC(=O)c1c(NC(=O)C2Cc3ccc(C)cc3C(=O)O2)sc2c1CCC(C)C2 (stereo unspecified)	101	x	x	-16
CCOC(=O)N=S(N)(=O)c1ccc(Cl)cc1 (stereo unspecified)	x	94	83	-5
O=C1CCCC(O)=C1N=Nc1ccccc1C(=O)O	x	100	76	-85
COc1ccc(N(CCC(=O)O)S(=O)(=O)c2cccc(Cl)c2)cc1	x	99	98	-11
CC(C)CCNC(=O)C1CCN(Cc2ccccc2Cl)CC1	102	108	91	-22
C[N+](C)(C)CC=O	102	x	x	-20
CCN(CC)c1ccc(/C=C2\CCC(/C=N/NC(=O)c3ccoc3C)=C2N2CCOCC2)cc1	x	77	86	-14
CCN(CC)Cc1ccc(O)c2ncccc12	100	66	60	-40
CN(C(=O)Cn1nc(Cc2ccncc2)c2ccccc2c1=O)C1CCCCC1	103	106	91	4
NC(=O)CSc1nncc2ccccc12	105	x	x	-11
COc1cc(OC)c(-c2ccccc2)nn1	100	84	97	3
CC1CN(C/C(N)=N/S(=O)(=O)c2cc(Cl)cc(Cl)c2)CC(C)O1 (stereo unspecified)	100	107	86	x
O=C(O)c1c(F)c(F)c(F)c(F)c1Nc1cccc(C(F)(F)F)c1	101	103	99	-5
CN(CC(=O)Nc1ccc(C(N)=O)cc1)Cc1ccc(C(F)(F)F)cc1	x	113	98	-8
CCc1ccccc1NCC(=O)Nc1cccc(OC)c1	x	100	91	-5
CC(C)NC(=O)C1CCCN(c2ncnc3onc(-c4ccc(F)cc4)c23)C1 (stereo unspecified)	105	90	95	x
COc1ccc(CNCCSc2nnnn2-c2ccccc2)cc1	97	106	89	-17
COc1ccc(S(=O)(=O)c2c(Nc3cccc(Cl)c3)sc(C(=O)c3ccccc3)c2N)cc1	104	112	81	-18

This part in full, repeating the preview:
SMILES	GIV Gai3 FP	Sa growth inh	Sa growth inh second temp	HCMV UL50-53 inh
COc1cccc(NC(=O)Cn2nc(N3CCN(c4ccccc4OC)CC3)ccc2=O)c1	110	x	x	-41
COc1ccc(C2=N/C(=C/c3c(C)nn(-c4ccccc4)c3N3CCCCC3)C(=O)O2)cc1OC	x	105	81	-12
CCOC(=O)c1c(NC(=O)C2Cc3ccc(C)cc3C(=O)O2)sc2c1CCC(C)C2 (stereo unspecified)	101	x	x	-16
CCOC(=O)N=S(N)(=O)c1ccc(Cl)cc1 (stereo unspecified)	x	94	83	-5
O=C1CCCC(O)=C1N=Nc1ccccc1C(=O)O	x	100	76	-85
COc1ccc(N(CCC(=O)O)S(=O)(=O)c2cccc(Cl)c2)cc1	x	99	98	-11
CC(C)CCNC(=O)C1CCN(Cc2ccccc2Cl)CC1	102	108	91	-22
C[N+](C)(C)CC=O	102	x	x	-20
CCN(CC)c1ccc(/C=C2\CCC(/C=N/NC(=O)c3ccoc3C)=C2N2CCOCC2)cc1	x	77	86	-14
CCN(CC)Cc1ccc(O)c2ncccc12	100	66	60	-40
CN(C(=O)Cn1nc(Cc2ccncc2)c2ccccc2c1=O)C1CCCCC1	103	106	91	4
NC(=O)CSc1nncc2ccccc12	105	x	x	-11
COc1cc(OC)c(-c2ccccc2)nn1	100	84	97	3
CC1CN(C/C(N)=N/S(=O)(=O)c2cc(Cl)cc(Cl)c2)CC(C)O1 (stereo unspecified)	100	107	86	x
O=C(O)c1c(F)c(F)c(F)c(F)c1Nc1cccc(C(F)(F)F)c1	101	103	99	-5
CN(CC(=O)Nc1ccc(C(N)=O)cc1)Cc1ccc(C(F)(F)F)cc1	x	113	98	-8
CCc1ccccc1NCC(=O)Nc1cccc(OC)c1	x	100	91	-5
CC(C)NC(=O)C1CCCN(c2ncnc3onc(-c4ccc(F)cc4)c23)C1 (stereo unspecified)	105	90	95	x
COc1ccc(CNCCSc2nnnn2-c2ccccc2)cc1	97	106	89	-17
COc1ccc(S(=O)(=O)c2c(Nc3cccc(Cl)c3)sc(C(=O)c3ccccc3)c2N)cc1	104	112	81	-18
CC(N)COc1ccc(Cl)cc1 (stereo unspecified)	102	75	90	0
O=c1c2ccc(-c3nnc4n3-c3ccccc3SC4)cc2nc2n1CCCCC2	x	102	96	0
Cc1cccc2c1N(C(=O)c1c(-c3c(Cl)cccc3Cl)noc1C)CCC2	105	94	89	-11
O=C1CCC(C(=O)OCc2cccc(C(F)(F)F)c2)=NN1	x	91	94	-11
CC(C)Cc1nn2c(=O)cc(CN(C)c3ccccc3)nc2s1	106	x	x	-28
Cc1ccc(CN(C(=O)COc2ccc(Br)cc2)c2ccccn2)o1	100	101	77	-28
CCc1ccc(CNC(=O)c2cnc3sc(N4CCOCC4)nn3c2=O)cc1	106	104	93	x
COc1cc2c(=O)n(Cc3ccc(C(=O)NC4CC4)cc3)c(=O)n(CC(=O)NC3CCCCC3)c2cc1OC	107	x	x	-27
Cc1cccc(-c2nnc(C(C)Oc3cc(Cl)ccc3Cl)o2)c1 (stereo unspecified)	x	74	76	-1
CCCc1nc2nc[nH]n2c(=O)c1NC(=O)c1cccc(C)c1	99	x	x	-22
CCn1nc(C)cc1-c1nnc(SC)n1-c1cccc(C(F)(F)F)c1	98	107	84	1
O=C(c1ccccc1)N(C(=O)c1ccccc1)C(=O)c1ccccc1	97	90	87	-47
CC(NC(=O)Nc1ccc2c(c1)OCO2)c1ccncc1 (stereo unspecified)	104	93	90	-5
CN(C)CCN(C(=O)c1ccco1)c1nc2c(F)cc(F)cc2s1	103	105	98	x
Cc1cc(C(=O)NN)n(C(C)(C)C)n1	100	103	78	-14
CCCCSc1nnc(CNC(=O)c2ccc(OC)cc2)n1CCCC	99	89	91	-4
Cc1ccc2c(c1)c1c3n2CCN(C(=O)c2c(-c4ccccc4Cl)noc2C)C3CCC1 (stereo unspecified)	99	107	91	-6
Cc1ccc(S(=O)(=O)N2CCN(C(=O)CCC(=O)NC3CCCc4ccccc43)CC2)cc1 (stereo unspecified)	x	94	94	0
Nc1ncc(-c2nnnn2-c2ccccc2)c(-c2ccccc2)n1	107	97	93	1
Cc1cc(=S)n(-c2ccccc2)n1C	100	105	89	-5
O=C(Nc1ccc(N2CCCCCC2)cc1)c1ccncc1	x	89	94	-26
S=C(NCc1ccccc1)N/N=C/c1ccco1	111	82	42	-22
Cc1ccc2nc(Sc3cccc(Cl)c3)[nH]c2c1	101	83	72	x
COc1ccc(-n2nc(C(=O)Nc3ccccc3OC)c(=O)n(C)c2=O)cc1	99	x	x	-73
Cc1c(C(=O)N(C)C)sc2c1c(=O)n(-c1ccccc1C(F)(F)F)c(=O)n2CC(N)=O	101	96	87	x
CCC(=O)N1CCc2cc(S(=O)(=O)CCC(=O)N3CCN(c4ccc(C(C)=O)cc4)CC3)ccc21	105	111	92	-10
O=C1CCCCC1Sc1nnc(-c2ccco2)n1-c1ccccc1 (stereo unspecified)	x	93	92	-15
COC(=S)Nc1ccc(N2CC(C)OC(C)C2)cc1 (stereo unspecified)	102	82	73	-9
O=C1C(O)=C(O)C(=O)C(O)=C1O	x	94	85	-28&-14
CCCc1cc(=O)n2nc(N3CCC(C(=O)Nc4ccc(CC)cc4)CC3)sc2n1	104	113	99	0

Record cards (already shown):
S=C(NCc1ccccc1)N/N=C/c1ccco1 is listed as GIV Gai3 FP: 111; Sa growth inh: 82; Sa growth inh second temp: 42; HCMV UL50-53 inh: -22
Cc1c(C(=O)N(C)C)sc2c1c(=O)n(-c1ccccc1C(F)(F)F)c(=O)n2CC(N)=O is listed as GIV Gai3 FP: 101; Sa growth inh: 96; Sa growth inh second temp: 87; HCMV UL50-53 inh: x

Following part:
SMILES	GIV Gai3 FP	Sa growth inh	Sa growth inh second temp	HCMV UL50-53 inh
O=c1oc2ccccc2c2c1nc(C(F)(F)F)n2-c1ccccc1	100	93	88	x
Cc1cccc(CNC(=O)c2cccc(NC(=O)N3CCSc4ncccc43)c2)c1	103	101	90	x
CN(Cc1ccco1)C(=O)CCS(=O)(=O)c1ccc2c(c1)n(C)c(=O)c(=O)n2C	105	102	88	-12
COc1ccc(COCC(O)CS(=O)(=O)c2ccc(C)cc2)cc1 (stereo unspecified)	97	108	84	-4
Cc1cccc(NC(=O)c2c(NC(=O)c3ccccc3)sc3c2CCCC3)c1	102	84	89	3
O=C(NN1C(=O)CCC1=O)c1cccc(Br)c1	100	95	83	-11
COc1ccc(C(C)(C)C)cc1NC(=O)COC(=O)C1CC(=O)N(Cc2ccco2)C1 (stereo unspecified)	x	104	93	-18
Cc1ccc(S(=O)(=O)/N=C2\C=C(Sc3ncn[nH]3)C(=O)c3ccccc32)cc1	83*	2	2	45
Cc1cccc(N(CC(=O)NC(C)c2ccccc2)S(=O)(=O)c2ccccc2)c1C (stereo unspecified)	97	103	97	-11
CCC(=O)N1CCc2cc(Br)cc(S(=O)(=O)N3CCN(c4ccccc4)CC3)c21	102	96	98	-2
FC(F)(F)c1ccnc(NCCNC(=S)Nc2ccc3c(c2)OCCO3)n1	104	87	88	-32
Cc1ccc2nc(Cl)c3cc(C(=O)NC4CCCCC4)sc3c2c1	103	105	94	-16
Cc1ccc(NC(=O)CSc2nc3ccc(NC(=O)c4cccc(Cl)c4)cc3s2)c(C)c1	98	100	86	-33
COc1ccc(CCNC(=O)c2cc(=O)c3cc(C)c(C)cc3o2)cc1OC	101	91	84	-24
Cc1cccc(N2CCN(C(=O)CS(=O)(=O)c3cccc4nsnc34)CC2)c1C	114	116	89	x
O=C(CCC(=O)N1CCc2cc(S(=O)(=O)N3CCCC3)ccc21)N1CCOCC1	102	x	x	-30
CC(OC(=O)c1ccc(NC(=O)Cc2ccccc2)cc1)C(=O)c1ccccc1 (stereo unspecified)	x	114	78	2
O=C(c1cccs1)N1CCN(c2ccccc2)CC1	x	89	96	16
COc1ccc(C(=O)CCC(=O)Nc2ccccc2C)cc1	110	100	96	x
Cc1ccc(OCCSc2nc3ccccc3n2CC(=O)O)cc1C	107	x	x	-10
COc1cc(C2C(C#N)=C(N)Oc3n[nH]c(-c4ccc(Cl)c(Cl)c4)c32)ccc1O (stereo unspecified)	103	x	x	-54
O=C(Nc1ccc(Cl)cc1)N1CCC(O)CC1	x	112	96	10
CCOC(=O)C1CCCN(C(=O)c2sc3nc(C)nc(N4CCN(c5ccccn5)CC4)c3c2C)C1 (stereo unspecified)	102	x	x	-15
O=C(NCCc1ccc(Cl)cc1)c1c2c(nc3ccccc13)C(=O)N(C1CCCCC1)C2	99	100	85	x
CCOc1ccc(-n2cc(C(=O)Nc3ccc(N4CCOCC4)cc3)nn2)cc1	103	86	84	-19
CCSc1nnc(-c2ccc(Cl)cc2)o1	98	126	102	-8
CC(=O)c1ccc(NC(=O)c2cc(-c3ccc(Cl)c(Cl)c3)on2)cc1	107	99	93	-3
COc1ccc(NS(=O)(=O)c2ccc(NC(=O)N3CCCC3)cc2)cc1	105	95	98	x
Cn1ncc2c(O/N=C/c3ccc(Cl)cc3Cl)ncnc21	101	94	88	-29
Cc1cc(F)ccc1NC(=O)CCS(=O)(=O)c1cccc2nsnc12	104	87	98	-45
C=CCNC(=O)c1cc2n(n1)C(C(F)(F)F)CC(c1ccco1)N2 (stereo unspecified)	102	110	100	-9
CCc1oc(C(=O)O)cc1COC	104	111	75	0
Cc1cc(=O)[nH]c(SCC(=O)OCc2ccccc2)c1C#N	107	74	70	-2
CC1=C(C(=O)OC2CCCC2)C(c2ccccc2)NC(=O)N1 (stereo unspecified)	111	94	106	2
CN(C)Cc1nc2ccccc2c(=O)[nH]1	x	81	91	-1
Cc1c(Cl)cccc1NC(=S)N(CCCN1CCCC(C)C1)Cc1ccco1 (stereo unspecified)	106	90	76	-20
COc1ccc2oc(=O)c(-c3nnc(NCc4ccc5c(c4)OCO5)s3)cc2c1	115	105	89	x
CCOc1ccc(C(=O)NCCc2sc3nc(-c4ccc(Cl)cc4)nn3c2C)cc1OCC	97&100	121	91	x
COC(=O)c1c(C)c[nH]c1C	x	109	97	-1
CC(C)NCC(O)Cn1c2c(c3ccccc31)CCCC2=O (stereo unspecified)	107	93	92	-12
COC(=O)c1cccc(Nc2cc(C)nc3ccccc23)c1	108	86	70	-23
CCOC(=O)Cn1nc(N2CCN(c3ccc(F)cc3)CC2)ccc1=O	106	109	83	-41
COc1cc(NC(=O)NCCc2c(C)nn(C)c2C)cc(OC)c1OC	100	88	83	x
CC1CN(C(=O)N2CCC(C(=O)NC3CCCCCC3)CC2)c2ccccc2O1 (stereo unspecified)	101	118	89	-13
COC(=O)C1=C(Nc2ccc(F)cc2F)CSC1	106	121	89	-4
Cc1ccc(/C=N/N2CCCCC2)o1	x	95	92	-51

Compounds as they come; overall some 0.85% were active at least once.
